Bioassay records deposited in PubChem by Broad Institute.
DUX4_txn_inh: blocks DUX4-driven transcriptional activation. 293T-iDUX4 ZSCAN4-Gaussia luciferase reporter, 24 h; active compounds read low. activity change, negative = inhibition, % (test concentration not listed). 37,000 tested, 0.8% active. AID 1224904;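 active means -10% or lower and over 25 points stronger than a control reporter; inconclusive means -10% or lower with a smaller gap; inactive means above -10%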;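 further: 0% = median of neutral control wells and -100% = median of positive control wells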
DUX4_txn_inh_difference: second read-out of DUX4_txn_inh, no call of its own (marks repeat the call); Gaussia minus Italica difference, %; measured here: selective DUX4 reporter inhibition;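 worked out from the two reporters; negative = selective loss of the DUX4 reporter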
DUX4_txn_inh_control: further read-out of DUX4_txn_inh, marked with its call; activity change, negative = inhibition, %; measured here: Italica tet-on control reporter;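 0 = neutral control and -100 = positive control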
Starred values were filed as active, the others as inactive; u = inconclusive; x = no result given.

SMILES DUX4_txn_inh DUX4_txn_inh_difference DUX4_txn_inh_control
CN1C(=O)c2cc(NC(=O)Cc3cccs3)ccc2OC[C@@H]2O[C@H](CC(=O)NCC3CCCCC3)CC[C@@H]21 -2 0 -1.8
CO[C@@H](CN(C)Cc1ccc2c(c1)OCO2)[C@H](C)CN(C(=O)Nc1ccc(F)cc1)[C@@H](C)CO -4 -4 -0.5
C[C@@H]1CCCCO[C@H](CN(C)CC2CCCCC2)[C@H](C)CN([C@@H](C)CO)C(=O)c2cc(NC(=O)C3CCCCC3)ccc2O1 -2 1 -3.4
CNC[C@H]1Oc2c(NS(=O)(=O)c3c(C)noc3C)cccc2C(=O)N([C@H](C)CO)C[C@H]1C 0 2 -2.3
C[C@H](CO)N1C[C@H](C)[C@H](CN(C)C(=O)Nc2ccc3c(c2)OCO3)Oc2ccc(NS(=O)(=O)c3cccs3)cc2C1=O -4 -2 -2.5
C[C@@H](NC(=O)C[C@H]1CC[C@H]2[C@@H](COC[C@@H](O)CN2C(=O)Nc2cc(Cl)cc(Cl)c2)O1)c1ccccc1 5 14 -9.7
O=C(C[C@H]1C[C@H]2c3cc(NC(=O)CC4CC4)ccc3O[C@H]2[C@H](CO)O1)NCc1ccccn1 5 0 5.0
CCCN1[C@@H]2c3ccc(-c4cccc(F)c4)c(=O)n3C[C@@H]2[C@@H](CO)[C@@H]1C(=O)N[C@H](C)c1ccccc1 0 2 -2.2
C/C=C/c1ccc([C@@H]2[C@@H](CO)N3C(=O)CN(Cc4ccccc4)C[C@H]23)cc1 2 -1 3.4
C[C@@H]1CN([C@@H](C)CO)C(=O)c2cc(-c3cccc(C(=O)N(C)C)c3)cnc2O[C@H]1CN(C)C(=O)Cc1ccccn1 1 -3 3.7
CCC(=O)N1CC(=O)N2[C@H](CO)[C@H](c3ccc(C#CC4CCCCC4)cc3)[C@@H]2C1 -8 -7 -1.7
CO[C@H](CN(C)S(=O)(=O)c1cn(C)cn1)[C@@H](C)CN(C(=O)Nc1ccc(F)cc1)[C@@H](C)CO 2 3 -0.2
C[C@H]1CN([C@@H](C)CO)C(=O)c2cccc(N(C)C)c2O[C@H]1CN(C)C(=O)NC1CCCCC1 -1 -1 0.3
C[C@@H]1CN([C@@H](C)CO)C(=O)CCCn2nncc2CO[C@H]1CN(C)Cc1ccc(Oc2ccccc2)cc1 u x x
CN1C(=O)c2cc(NS(C)(=O)=O)ccc2OC[C@H]2O[C@@H](CC(=O)NCc3ccccc3)CC[C@H]21 -1 0 -1.5

3 entries out of the list, ordered by heavy-atom count, smallest number first.
SMILES DUX4_txn_inh DUX4_txn_inh_difference DUX4_txn_inh_control
C/C=C/c1ccc([C@@H]2[C@@H](CO)N3C(=O)CN(Cc4ccccc4)C[C@H]23)cc1 2 -1 3.4
CNC[C@H]1Oc2c(NS(=O)(=O)c3c(C)noc3C)cccc2C(=O)N([C@H](C)CO)C[C@H]1C 0 2 -2.3
C[C@H]1CN([C@@H](C)CO)C(=O)c2cccc(N(C)C)c2O[C@H]1CN(C)C(=O)NC1CCCCC1 -1 -1 0.3

The results go on.
SMILES DUX4_txn_inh DUX4_txn_inh_difference DUX4_txn_inh_control
COc1ccc(C(=O)N2C[C@@H]3[C@H](c4ccccc42)[C@H](CO)N3Cc2ccc3c(c2)OCO3)cc1 1 -2 3.5
C[C@@H]1CN([C@@H](C)CO)C(=O)c2cc(NC(=O)Nc3cccc4ccccc34)ccc2O[C@@H]1CN(C)S(=O)(=O)c1cccs1 0 0 0.2
O=C(c1ccc2c(c1)OCO2)N1CC2(C1)[C@H](c1ccccc1)[C@@H](CO)N2C(=O)C1CC1 6 -2 8.4
COc1ccc2c3c([nH]c2c1)[C@H](CO)NCC31CN(C(=O)Cc2cccnc2)C1 18 11 6.5
COc1ccc(S(=O)(=O)N(C)C[C@H]2Oc3c(NC(=O)Nc4c(C)noc4C)cccc3C(=O)N([C@H](C)CO)C[C@@H]2C)cc1 0 -1 1.7
CCCNC(=O)N1CC(=O)N2[C@H](C1)[C@@H](c1ccc(C#Cc3cccc(OC)c3)cc1)[C@@H]2CO u x x
COC(=O)C[C@H]1CC[C@H]2[C@H](COc3ccc(NC(=O)c4ccc(OC)cc4)cc3C(=O)N2C)O1 0 -3 3.1
CN1C(=O)c2cc(NC(=O)c3cccc(F)c3)ccc2OC[C@H]2O[C@H](CC(=O)Nc3ccccc3)CC[C@H]21 2 2 -0.8
COc1ccccc1CNC(=O)C[C@H]1CC[C@@H]2[C@H](COC[C@H](O)CN2C(=O)Nc2ccc(Cl)cc2)O1 3 1 2.3
COCC(=O)Nc1ccc2c(c1)C(=O)N(C)[C@@H]1CC[C@H](CC(=O)NC3CCCC3)O[C@H]1CO2 5 4 1.6
COc1ccc(S(=O)(=O)Nc2cccc3c2O[C@@H](CN(C)S(=O)(=O)c2cn(C)cn2)[C@H](C)CN([C@H](C)CO)C3=O)cc1 -4 -5 0.3
COc1ccc(-c2cnc3c(c2)C(=O)N([C@@H](C)CO)C[C@@H](C)[C@@H](CN(C)C(=O)C2CCC2)O3)cc1 -3 2 -5.0
C/C=C/c1ccc([C@H]2[C@@H](CO)N(C(=O)C3CC3)[C@@H]2CNC(=O)CN(C)C)cc1 0 -3 3.1
O=C(CN1CCOCC1)N1CCCCN2[C@H](CO)[C@@H](c3ccc(-c4ccccc4)cc3)[C@@H]2C1 13 -2 16
CC(=O)NC[C@H]1[C@@H](c2ccc(-c3cccc(F)c3)cc2)[C@@H](CO)N1C(=O)C1CC1 5 8 -3.2
C[C@H](CO)N1C[C@H](C)[C@H](CN(C)C(=O)Cc2ccccn2)Oc2ncc(-c3cccc(C(=O)N(C)C)c3)cc2C1=O -2 0 -1.4
Cc1ccc(-c2ccc([C@@H]3[C@@H](CO)N4C(=O)CN(C(=O)c5cccnc5)C[C@@H]34)cc2)cc1 -6 -2 -3.7
C[C@@H]1CN([C@@H](C)CO)C(=O)c2cc(NC(=O)CCC(F)(F)F)ccc2O[C@@H]1CN(C)S(=O)(=O)c1ccc(F)cc1 -4 1 -4.9
C/C=C/c1ccc([C@@H]2[C@H](CO)N(Cc3cncnc3)C23CN(C(C)=O)C3)cc1 10 2 7.8
CCCNC(=O)Nc1ccc2c(c1)OC[C@H](C)N(CC1CCCC1)C[C@H](C)[C@@H](OC)CN(C)C2=O u x x
O=C(NCC1CC1)[C@@H]1[C@@H](CO)[C@@H]2Cn3c(ccc(-c4ccc(F)cc4)c3=O)[C@H]1N2 7 5 2.4
CN(C)C(=O)[C@H]1[C@H](CO)[C@H]2Cn3c(ccc(-c4ccccc4F)c3=O)[C@@H]1N2C -7 -5 -1.8
CCC(=O)N1CC[C@@H]2[C@H]1c1cc(-c3ccccc3)ccc1N(C)[C@@H]2CO 6 12 -6.5
C[C@H](CO)N1C[C@H](C)[C@@H](CN(C)Cc2ccccn2)Oc2ncc(-c3cccc(F)c3)cc2C1=O 0 -4 4.5
CC(C)NC(=O)N(C)C[C@@H]1OCCCC[C@@H](C)Oc2ccc(NS(C)(=O)=O)cc2C(=O)N([C@H](C)CO)C[C@H]1C 1 4 -3.4
COc1ccccc1CNC(=O)C[C@@H]1C[C@@H]2c3cc(NC(=O)c4cccnc4)ccc3O[C@@H]2[C@@H](CO)O1 3 2 0.6
COc1cccc(C(=O)Nc2ccc3c(c2)C(=O)N(C)[C@H]2CC[C@H](CC(=O)NCCCN4CCOCC4)O[C@@H]2CO3)c1 2 -1 3.7
Cc1ccccc1-c1ccc([C@H]2[C@@H](CO)N3C(=O)CN(C(=O)c4ccc(F)cc4)C[C@@H]23)cc1 u x x
O=C(C[C@@H]1C[C@H]2c3cc(NC(=O)Cc4ccncc4)ccc3O[C@H]2[C@H](CO)O1)NCc1cc(F)ccc1F -4 -15 12
COc1ccc2c3c(n(C)c2c1)[C@H](CO)N(Cc1ccccc1OC)CC31CCN(C)CC1 -9 -9 -0.1
O=C(C[C@@H]1CC[C@H]2[C@@H](COC[C@H](O)CN2Cc2nccs2)O1)NCc1ccccc1Cl -1 5 -5.5
COc1ccc(CN2[C@H](CO)[C@@H]3c4ccccc4N(C(=O)Nc4ccc(F)cc4)C[C@@H]32)cc1 1 0 0.9
CCCNC(=O)C[C@H]1CC[C@H]2[C@H](COc3ccc(NC(=O)c4cccc(C(F)(F)F)c4)cc3C(=O)N2C)O1 4 2 1.5
COc1ccc2c3c([nH]c2c1)[C@@H](CO)N(C(=O)CN(C)C)CC31CN(C(=O)c2cccnc2)C1 19 7 13
CN(C)C(=O)C[C@H]1C[C@@H]2c3cc(NC(=O)NC4CCCC4)ccc3O[C@@H]2[C@@H](CO)O1 -3 -4 1.0
Cc1ccccc1-c1ccc([C@H]2[C@@H](CO)N3CCCCN(S(C)(=O)=O)C[C@@H]23)cc1 1 -3 4.1
O=C(Nc1cc(F)ccc1F)N[C@H]1CC[C@@H](CC(=O)N2CCc3ccccc3C2)O[C@H]1CO -9 -8 -1.3
O=C(C1CCC1)N1CC(=O)N2[C@H](CO)[C@@H](c3ccc(Br)cc3)[C@H]2C1 17 10 7.5
OC[C@@H]1[C@H](c2ccc(/C=C/c3ccccc3)cc2)[C@H]2CN(Cc3cncnc3)CCCCN12 -4 -5 1.6
COc1ccccc1NC(=O)N[C@H]1C=C[C@@H](CC(=O)N[C@H](C)c2ccccc2)O[C@@H]1CO 2 0 2.4
CC(=O)NC[C@@H]1[C@@H](c2ccc(-c3cccc(F)c3)cc2)[C@@H](CO)N1C(C)=O 0 0 -0.6
CCCNC(=O)N1[C@@H]2c3ccc(-c4ccccc4OC)c(=O)n3C[C@@H]2[C@@H](CO)[C@@H]1C(=O)NC1CCC1 0 0 0.7
O=C(Cc1ccncc1)Nc1ccc2c(c1)[C@@H]1C[C@H](CC(=O)N3CCc4ccccc4C3)O[C@H](CO)[C@@H]1O2 -10 -8 -1.7
C[C@H](NC(=O)[C@@H]1[C@@H](CO)[C@@H]2Cn3c(ccc(-c4cccc(F)c4)c3=O)[C@@H]2N1C)c1ccccc1 -4 0 -4.6
COCC(=O)N1CCCCN2[C@H](C1)[C@H](c1ccc(-c3ccc(OC)cc3)cc1)[C@@H]2CO 11 10 0.5
CO[C@@H]1CN(C)C(=O)c2ccc(NS(C)(=O)=O)cc2OC[C@@H](C)N(S(C)(=O)=O)C[C@H]1C -6 -6 0.6
COc1ccc(NC(=O)Nc2ccc3c(c2)[C@H]2C[C@H](CC(=O)N[C@@H](C)c4ccccc4)O[C@@H](CO)[C@H]2O3)cc1 6 5 0.8
C[C@@H]1CN([C@@H](C)CO)C(=O)c2c(c3ccccc3n2C)-c2ccccc2CO[C@H]1CN(C)C(=O)[C@H](Cc1ccccc1)N(C)C u x x
Cc1cccc(S(=O)(=O)N2C[C@H]3[C@@H](c4ccccc42)[C@H](CO)N3Cc2cccnc2)c1 2 3 -1.2
O=C(CN1CCOCC1)NCC[C@H]1CC[C@@H](NC(=O)Cc2ccccn2)[C@H](CO)O1 2 3 -1.2
OC[C@@H]1[C@@H]2c3ccccc3NC[C@@H]2N1Cc1ccccc1Cl 0 1 -1.0
C[C@H](NC(=O)C[C@H]1C[C@H]2c3cc(NC(=O)Nc4ccc(C(F)(F)F)cc4)ccc3O[C@H]2[C@H](CO)O1)c1ccccc1 7 15 -8.1
C[C@@H]1CN([C@H](C)CO)C(=O)c2cc(C#CC3CC3)cnc2O[C@H]1CN(C)C(=O)c1ccc(F)cc1 -1 -2 1.6
Cc1cccc(S(=O)(=O)N2C[C@H]3[C@@H](c4ccccc42)[C@H](CO)N3CC2CCOCC2)c1 -3 -3 -0.2
COc1ccc2c3c(n(C)c2c1)[C@H](CO)N(CC1CC1)CC31CN(S(=O)(=O)c2cccs2)C1 u x x
O=C(C[C@@H]1CC[C@@H](NC(=O)C2CCOCC2)[C@@H](CO)O1)Nc1nccs1 -3 -5 1.8
C[C@@H]1CN([C@@H](C)CO)C(=O)c2cccc(NS(=O)(=O)c3ccc(F)cc3)c2O[C@H]1CN(C)Cc1ccc(Cl)c(Cl)c1 -2 -2 0.0
CCN1[C@@H]2Cn3c(ccc(/C=C/c4ccccc4)c3=O)[C@H]1[C@@H](C(=O)NC1Cc3ccccc3C1)[C@@H]2CO u x x
O=C(C[C@@H]1CC[C@@H]2NC[C@H](O)COC[C@H]2O1)NCc1ccc2c(c1)OCO2 0 5 -5.7
N#C[C@H]1[C@H](c2ccc(-c3cccc(F)c3)cc2)[C@H](CO)N1c1nc(-c2ccccc2)cs1 1 -3 4.3

At a glance, 4 of the compounds above.
SMILES DUX4_txn_inh DUX4_txn_inh_difference DUX4_txn_inh_control
O=C(CN1CCOCC1)NCC[C@H]1CC[C@@H](NC(=O)Cc2ccccn2)[C@H](CO)O1 2 3 -1.2
OC[C@@H]1[C@@H]2c3ccccc3NC[C@@H]2N1Cc1ccccc1Cl 0 1 -1.0
C[C@H](NC(=O)C[C@H]1C[C@H]2c3cc(NC(=O)Nc4ccc(C(F)(F)F)cc4)ccc3O[C@H]2[C@H](CO)O1)c1ccccc1 7 15 -8.1
C[C@@H]1CN([C@H](C)CO)C(=O)c2cc(C#CC3CC3)cnc2O[C@H]1CN(C)C(=O)c1ccc(F)cc1 -1 -2 1.6

Later entries
SMILES DUX4_txn_inh DUX4_txn_inh_difference DUX4_txn_inh_control
CCCC#Cc1cnc2c(c1)C(=O)N([C@H](C)CO)C[C@@H](C)[C@H](CN(C)Cc1ccc3c(c1)OCO3)O2 0 -5 5.0
O=C(Nc1cccc(F)c1)N1CCCCN2[C@@H](CO)[C@H](c3ccc(C#Cc4cccnc4)cc3)[C@@H]2C1 u x x
COc1ccc(S(=O)(=O)N2CC[C@@H]3[C@@H](CO)Nc4ccc(-c5cccc(C#N)c5)cc4[C@@H]32)cc1 u x x
O=C(CC1CC1)N1CC2(C1)[C@H](c1ccccc1)[C@@H](CO)N2C(=O)c1ccccn1 6 9 -3.5
C[C@H](CO)N1C[C@H](C)[C@H](CN(C)Cc2ccc3c(c2)OCO3)Oc2ncc(-c3cccc(C(F)(F)F)c3)cc2C1=O -5 -2 -3.7

Some of the compounds tested, so the mix of outcomes need not match the whole.
